High-throughput results from PubChem.
PV pol inh: inhibitors of poliovirus RNA polymerase binding and polymerization; P03300; 150,000 tested, 0.66% active; AID 588519; poliovirus polymerase elongation, fluorescence polarization; active compounds read low; % elongation, % (compound at 16.7 µg/mL); in the data active means % elongation below about 90%; further: some results filed as inactive read as strong as hits
Target sequence (P03300 1749-2209 limits assumed): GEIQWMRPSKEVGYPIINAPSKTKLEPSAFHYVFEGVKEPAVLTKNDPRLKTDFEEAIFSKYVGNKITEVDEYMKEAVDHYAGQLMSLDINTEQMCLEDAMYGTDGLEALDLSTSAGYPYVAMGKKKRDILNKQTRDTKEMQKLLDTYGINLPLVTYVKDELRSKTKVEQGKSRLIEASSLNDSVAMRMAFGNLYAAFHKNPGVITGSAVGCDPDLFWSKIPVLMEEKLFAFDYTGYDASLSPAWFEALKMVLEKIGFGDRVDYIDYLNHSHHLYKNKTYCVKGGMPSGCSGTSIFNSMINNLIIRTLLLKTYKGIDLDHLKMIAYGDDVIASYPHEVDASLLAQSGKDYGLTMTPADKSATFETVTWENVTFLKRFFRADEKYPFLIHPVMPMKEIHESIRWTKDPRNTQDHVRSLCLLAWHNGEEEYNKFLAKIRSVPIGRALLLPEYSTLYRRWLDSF
PV pol inh intensity: further read-out of PV pol inh, marked with its call; % elongation; measured here: total intensity read-out; formula for this scale not given here;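 total fluorescence in place of polarization; lower means less elongation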
The depositor's hits bear a star.

SMILES	PV pol inh	PV pol inh intensity
COc1ccc2oc(-c3ccc(C)c(NC(=O)c4ccc(N5CCCCC5)c([N+](=O)[O-])c4)c3)nc2c1	109	109
CN(C(=O)c1oc(=O)c2ccccc2c1-c1ccccc1)c1cccc(Cl)c1	107	107
O=C(c1noc2c1CCCCC2)N1CCN(c2cccc(Cl)c2)CC1	104	101
CC(=O)c1ccc(NC(=O)CSc2nnc(NC(=O)Nc3ccccc3)s2)cc1	110	100
COc1ccc(Cn2c(CCC(=O)Nc3ccccc3OC)nc3cccnc32)cc1	104	99
Cc1ccc(NC(=O)CSc2ncc(S(=O)(=O)c3ccc(C(C)C)cc3)c(=O)[nH]2)cc1C	101	100
CCC(=O)Nc1nnc(S(=O)(=O)N(C)Cc2ccc(Cl)cc2)s1	104	110
CCc1nc2ccc(C(=O)N3CCN(c4cccc(Cl)c4)CC3)cc2nc1CC	100	103
CCc1ccc(-c2nn(CC(=O)NC3CCCCC3)c3c2cnc2ccc(OC)cc23)cc1	105	113
CCc1ccc(NC(=O)Cn2c(=O)n(CCCCC(=O)NCCc3ccccc3)c(=O)c3ccccc32)cc1	107	110
Cc1ccc(NC(=O)c2cc(S(=O)(=O)NC3CCCCCC3)ccc2F)cc1F	99	100
CCc1cc2c(cc3c(=O)n(CC(=O)NCCc4ccccc4)ncn32)s1	104	109
CCOc1ccc(CCNC(=O)c2nn(-c3ccc(OC)cc3)c(=O)c3c2c2ccccc2n3C)cc1OCC	109	113
Cc1ccccc1CN1C(=O)c2ccccc2Sc2ccc(C(=O)NCCCN3CCOCC3)cc21	110	108
CC(C)c1cnc2c(c1SCC(=O)NCc1ccccc1)c(=O)n(C)c(=O)n2C	111	112
CCCSc1ncc(Cl)c(C(=O)Nc2ccc(S(=O)(=O)N3CCCCC3C)cc2)n1 (configuration not stated)	109	106
Cc1ccc(Nc2nc3ccccc3c3nncn23)cc1C	101	99
COc1cc(OC)c(NC(=O)C2CCN(S(=O)(=O)c3ccc4c(c3)oc(=O)n4C)CC2)cc1Cl	102	104
O=C(Nc1ccccc1C(F)(F)F)C1CCN(c2nnc(-n3cccc3)s2)CC1	105	88
Cc1ccc(NC(=O)c2ccc(CN3CC(=O)N4CCCCC4C3=O)cc2)c(Cl)c1 (configuration not stated)	105	101
CCOCCCNC(=O)c1cn(CC)c2ccc(S(=O)(=O)N3CCOCC3)cc2c1=O	101	104
C#CCn1c(=O)n(-c2cccc(Cl)c2C)c(=O)c2c3c(sc21)CN(C(C)=O)CC3	102	106
Cc1ccc2nc(-c3ccc(Cl)c(NC(=O)c4cccnc4)c3)oc2c1	106	104
CCOc1ccccc1NC(=O)c1ccc(C(=O)Nc2ccccc2OCC)cc1	108	113
CCOC(=O)c1c(-c2ccccc2)csc1NC(=O)c1nc(SCC)ncc1Cl	118	118

Carrying on:
SMILES	PV pol inh	PV pol inh intensity
Cc1cccc(NC(=O)Cn2nc(C)c3nn(-c4ccc(Cl)cc4)c(C)c3c2=O)c1C	117	120
CSc1ccc(CCNC(=O)c2c(C)oc3ncn(C)c(=O)c23)cc1	114	116
Cc1c(C(=O)N(C)C)sc2c1c(=O)n(-c1ccc(F)cc1)c(=O)n2CC(=O)N(C)c1ccccc1	101	104
COc1c(Cl)cc(C(=O)N(Cc2ccccc2F)C2CCS(=O)(=O)C2)cc1Cl (configuration not stated)	107	100
Cn1nc(-c2ccc(OCC(=O)Nc3ccc(Cl)cc3)cc2)c2ccccc2c1=O	103	107
COc1ccc(N2CCN(S(=O)(=O)CCNC(=O)Cc3ccc(OC)c(OC)c3)CC2)cc1	109	114
CCOC(=O)c1cnc2ccc(C(=O)OC)cc2c1Nc1ccc(OCc2ccccc2Cl)cc1	104	103
CC1=C(C(=O)OCC2CCCCC2)C(c2cccc(Cl)c2Cl)CC(=O)N1 (configuration not stated)	108	107
COc1ccc(CCCc2nnc(SCC(=O)Nc3ccc(C)c(C)c3)o2)cc1	108	111
COc1cc(OC)c(NC(=O)C2=C(C)C(=O)OC23CCN(C(C)=O)CC3)cc1Cl	110	113
CCOc1ccc(CNCc2c(C(=O)O)c(C)n(Cc3cccc(OC)c3)c2C)cc1OC	106	106
COC(=O)c1cccc(NC(=O)Nc2cc(C(=O)NCc3cccc(F)c3)ccc2N2CCCC2)c1	105	104
CCn1cc(C(=O)N2CCN(c3cc(C)ccc3C)CC2)c(=O)c2cc(S(=O)(=O)N(C)C3CCCCC3)ccc21	108	111
COC(=O)c1c(NC(=O)CCCOc2ccccc2C)sc2c1CCC(C)C2 (configuration not stated)	103	103
Cc1cc(C)cc(NS(=O)(=O)c2cc3c(cc2C)NC(=O)CO3)c1	105	108
Cc1ccc(-c2cc3ncc4c(n3n2)-c2cc(C)ccc2OC4)cc1	104	104
O=C(C1CC1)N1CCc2cc(Br)cc(S(=O)(=O)N3CCN(c4ccccc4F)CC3)c21	103	108
CN(C)c1ccc(/C=C(\C#N)c2nc(-c3ccc(Cl)c(Cl)c3)cs2)cc1	117	122
CCCCN(C)CC(O)Cn1cc(/C=C/C(=O)c2ccc(C)cc2)c2ccccc21 (configuration not stated)	106	109
COc1cccc(N2CCN(C(=O)C3CCCN(S(=O)(=O)c4ccc5c(c4)oc(=O)n5C)C3)CC2)c1 (configuration not stated)	110	113
CN(C(=O)c1cc(-c2ccccc2O)on1)c1ccccc1	108	109
O=C(Cn1c(SCCOc2ccccc2Cl)nc2ccccc21)N1CCOCC1	108	106
Cc1ccc2c(c1)c(=O)c1ccccc1n2CCCC(=O)Nc1cc(Cl)ccc1C	110	109
CSc1ncc(Cl)c(C(=O)Nc2c(C(=O)c3ccc(Cl)cc3)oc3ccccc23)n1	117	113
O=C(Nc1ccc(C(F)(F)F)cc1)N1CCC(N2CCCCC2)CC1	115	115

Next part; it opens with the 5 that closed the last part.
SMILES	PV pol inh	PV pol inh intensity
CN(C(=O)c1cc(-c2ccccc2O)on1)c1ccccc1	108	109
O=C(Cn1c(SCCOc2ccccc2Cl)nc2ccccc21)N1CCOCC1	108	106
Cc1ccc2c(c1)c(=O)c1ccccc1n2CCCC(=O)Nc1cc(Cl)ccc1C	110	109
CSc1ncc(Cl)c(C(=O)Nc2c(C(=O)c3ccc(Cl)cc3)oc3ccccc23)n1	117	113
O=C(Nc1ccc(C(F)(F)F)cc1)N1CCC(N2CCCCC2)CC1	115	115
Cc1cc(C)n2nc(CNC(=O)c3cccc(Cl)c3)nc2n1	105	107
O=C(CCS(=O)(=O)c1ccccc1)N(Cc1cccnc1)c1nc2ccc(F)cc2s1	100	95
O=C(CN1C(=O)C2(SCC(=O)N2c2ccccc2)c2ccccc21)Nc1ccccc1C(F)(F)F (configuration not stated)	104	103
Cc1ccc(NC(=O)Cn2nnc(C(=O)NCc3ccc4c(c3)OCO4)c2N)cc1Cl	105	113
Cc1nn(CC(=O)NCc2ccccc2Cl)c(=O)c2cccn12	108	113
Cc1nc2nncn2c(N2CCN(c3ccccc3)CC2)c1C	110	109
Cc1cccn2c(=O)c(C(=O)NCCc3ccc(S(N)(=O)=O)cc3)c(O)nc12	106	111
CCc1ccc(CN(Cc2ccco2)C(=O)COc2ccc(Cl)cc2C)cc1	103	97
Cc1nc2cccnc2n1C1CCN(C(=O)Nc2ccccc2C(F)(F)F)CC1	106	105
Cc1ccc(-n2c(/C=C/c3cccc4ccccc34)nc3ccccc3c2=O)cc1	109	104
COC(=O)c1cccnc1-n1c(=O)c2cccnc2n(CC(=O)Nc2ccccc2F)c1=O	104	107
Cc1ccc(OCC(=O)Nc2ccccc2OCc2cc(=O)n3ccccc3n2)cc1C	102	98
O=C(NCCc1ccc(Cl)cc1)c1ccc(CS(=O)(=O)Cc2ccccc2F)o1	109	102
Cc1ccccc1CN1C(=O)c2ccccc2Sc2ccc(C(=O)NC(C)c3ccccc3)cc21 (configuration not stated)	109	112
Cc1ccc2c(c1)N(C(=O)C1CCN(S(=O)(=O)c3c(C)noc3/C=C/c3ccccc3F)CC1)CCO2	102	110
CCC(C)n1c(=N)c(C(=O)NC2CCCC2)cc2c(=O)n3ccccc3nc21 (configuration not stated)	109	107
CCOC(=O)C1CCCN(S(=O)(=O)c2cc(-c3cc(C)no3)ccc2C)C1 (configuration not stated)	106	98
CC(=O)c1cc(-c2ccccc2)n(CCC(=O)NC(C)c2ccccc2)c1C (configuration not stated)	102	94
Cc1nn(-c2ccccc2)c2c1cc1c(=O)n(C)c(=O)nc-1n2-c1cccc(Cl)c1	112	112
Cc1ccc(-c2nnn3c2nc(NC2CCC(C)CC2)c2ccccc23)cc1 (configuration not stated)	104	106
CCc1ccccc1NC(=O)CSc1nc2ccccc2nc1Cc1cccc(OC)c1	108	109
Cc1ccc(-c2nn(-c3ccc(F)cc3F)c3c2cnc2ccc(F)cc23)cc1	106	110
COc1cc2c(cc1OC)C(c1ccc(Cl)cc1)N(c1ccc(C)c(F)c1)C(=O)C2 (configuration not stated)	108	102
CCCN1C(=O)C2(c3ccccc31)c1c(oc3ccc(C)cc3c1=O)C(=O)N2CCOC (configuration not stated)	111	114
COc1ccccc1-c1nnc(C2CCN(S(=O)(=O)c3ccc(CC(C)C)cc3)CC2)o1	107	109

(further entries)
SMILES	PV pol inh	PV pol inh intensity
Cc1ccc(Nc2ncnc3c2nc2n3CCCC2)c(Br)c1	100	94
COC(=O)c1ccc(NC(=O)CSc2nc(=O)n(Cc3ccco3)c3c2CCC3)cc1	105	101
COc1cc(OC)c(NC(=O)C(c2ccccc2)N2Cc3ccccc3C2=O)cc1Cl (configuration not stated)	106	106
CCc1ccccc1NC(=O)c1ccc(=O)n(Cc2ccc(F)cc2)c1	115	112
Cc1cc(C)cc(NC(=O)C2CCCN2S(=O)(=O)c2ccc3nc(-c4ccccc4)[nH]c3c2)c1 (configuration not stated)	104	99
CCOc1ccccc1C(=O)Nc1cc(-c2nc3cccnc3s2)ccc1C	104	105
CC(=O)Nc1cccc(NC(=O)C(=O)NCCc2csc3nc(-c4ccccc4F)nn23)c1	105	114
COc1ccc(NC(=O)C2=C(C)Nc3ncnn3C2c2ccc(C)o2)cc1 (configuration not stated)	108	110
CCOC(=O)C1CCN(C(=O)Cn2c(-c3cccs3)cc3cc(Cl)ccc32)CC1	114	115
Cc1nc2ccc(S(=O)(=O)NC(C(=O)N3CCN(c4ccc(Cl)cc4)CC3)C(C)C)cc2s1 (configuration not stated)	104	102
CCCC(=O)Nc1nnc(SCc2cc(=O)n3cccc(C)c3n2)s1	108	120
CCOC(=O)c1ccccc1NC(=O)c1c2c(nc3ccccc13)C(=O)N(C1CCCCC1)C2	109	116
Cc1ccc(/C=C/C(=O)Nc2ccc(Cl)cc2Cl)cc1	101	100
CC(=O)c1ccc(NC(=O)CN(C)S(=O)(=O)c2cc3c(cc2C)NC(=O)CO3)cc1	107	112
Cc1ccc(C2=Nc3ccccc3N(CC(=O)Nc3ccccc3C)C(=O)C2)cc1C	105	111
COc1ccc(CCNC(=O)C(=O)NCC(c2cccs2)S(=O)(=O)c2ccc(F)cc2)cc1 (configuration not stated)	114	115
COC(=O)c1cccc(CN2C(=O)SC(Nc3ccc(Br)cc3)C2=O)c1 (configuration not stated)	104	104
Cc1nn2c(=O)cc(COC(=O)c3ccc(NC(=O)C4CCCCC4)cc3)nc2s1	105	106
CCC(=O)Nc1ccccc1-c1nc2ccccc2n(CC(=O)c2ccc(C)c(C)c2)c1=O	111	109
Cc1ccc2scc(N3CCCC(C)C3)c(=O)c2c1 (configuration not stated)	107	102
Cc1cc(=O)n2c(C(=O)Nc3ccc(C)c(Cl)c3)c(C(=O)Nc3ccccc3)sc2n1	101	102
COc1ccccc1NC(=O)CCn1nc(-c2ccccc2OC)c2c(C)cc(C)nc21	106	106
O=S(=O)(Nc1ccc(OC(F)(F)F)cc1)c1ccc(N2CCCCS2(=O)=O)cc1	105	109
CC(=O)c1cccc(NC(=O)C2CCCN(C(=O)c3cnn(-c4ccccc4)c3-n3cccc3)C2)c1 (configuration not stated)	109	107
CCOc1ccc(-n2cc(-c3ccccc3)c3c(NCc4ccc(F)cc4)ncnc32)cc1	110	111

New compounds follow
SMILES	PV pol inh	PV pol inh intensity
COc1ccc(OC)c(NC(=O)C2Cc3ccccc3CN2S(=O)(=O)c2ccc(F)cc2)c1 (configuration not stated)	117	113
CC(C)CN(CCNC(=O)CCN1N=C(c2ccccc2)CCC1=O)CC(C)C	104	104
COc1ccccc1C(=O)Nc1ccc(-c2nc3ccccc3s2)c(C)c1	108	111
CCN(CC)CCCNC(=O)CSc1nc(-c2ccc(OC)cc2)cc(C(F)(F)F)n1	105	108
COC(=O)c1scc(-c2ccc(C)cc2)c1S(=O)(=O)Nc1cccc(C(F)(F)F)c1	104	104
CCn1cc(C(=O)N2CCN(c3ccccc3)CC2)c(=O)c2cc(S(=O)(=O)N(C)C3CCCCC3)ccc21	68*	72*
CCC(C)NC(=O)CCCc1nnc2n(CC(C)C)c(=O)c3sccc3n12 (configuration not stated)	110	118
Cc1ccc(C2C=C(c3ccc(Cl)cc3)Nc3nc(NS(=O)(=O)c4ccccc4)nn32)cc1 (configuration not stated)	85	195

2 entries from above, field by field:
COc1ccccc1-c1nnc(C2CCN(S(=O)(=O)c3ccc(CC(C)C)cc3)CC2)o1
  PV pol inh: 107
  PV pol inh intensity: 109
Cc1ccc(Nc2ncnc3c2nc2n3CCCC2)c(Br)c1
  PV pol inh: 100
  PV pol inh intensity: 94

Only part of the results is shown. The share of hits here may be higher or lower than overall.
